NPYLR7 agonist: agonists of mosquito NPYLR7 receptor, primary screen, cell-based, Aedes aegypti, calcium fluorescence, mosquito biting behavior; activation, % at 10 µM; HEK293T NPYLR7/Galpha15, GCaMP6s calcium fluorescence; Aedes aegypti neuropeptide Y-like receptor 7 (NPYLR7); hit rate 0.15% among 270,000; AID 1259423, 2018; in the data active = activation above about 40%;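 also: 0% = vehicle and 100% = reference agonist at the receptor; some compounds past the cut are filed as inactive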
NPYLR7 agonist max-min: second read-out of NPYLR7 agonist, no call of its own (marks repeat the call); activation, %; measured here: Max-Min RFU normalised activation; some inactives read as strong as hits;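 span of the calcium signal over five minutes; 0% = vehicle and 100% = native peptide agonist; compound fluorescence can raise it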
* marks the source's active call; other numbers are inactive results; & = joins results of further samples.

Start of the data: the first 7 entries as a preview:
Values run as follows: NPYLR7 agonist | NPYLR7 agonist max-min
> Cc1ccc(C)c(NC(=O)C(C)N2CCCN(c3ccccc3C#N)CC2)c1 (stereo not given)
  1 | -2
> O=S1(=O)NC(=NCc2ccccc2)c2ccccc21
  11 | 10
> O=C(O)Cc1coc2ccc3ccccc3c12
  -4 | -4
> CCCn1c(=O)[nH]c(=O)c2[nH]cnc21
  1 | -25
> Cc1nnc(NCCC(=O)N2CCCc3ccccc32)c(C#N)c1C
  -20 | -22
> COc1ccc(NC(=O)Cn2ncn3nc(-c4ccc(F)cc4)cc3c2=O)cc1Cl
  -9 | -19
> c1ccc(N2CCN(c3cccc(-c4cc5ccccc5s4)n3)CC2)nc1
  -3 | -11

The list itself, repeating the preview:
Values run as follows: NPYLR7 agonist | NPYLR7 agonist max-min
> Cc1ccc(C)c(NC(=O)C(C)N2CCCN(c3ccccc3C#N)CC2)c1 (stereo not given)
  1 | -2
> O=S1(=O)NC(=NCc2ccccc2)c2ccccc21
  11 | 10
> O=C(O)Cc1coc2ccc3ccccc3c12
  -4 | -4
> CCCn1c(=O)[nH]c(=O)c2[nH]cnc21
  1 | -25
> Cc1nnc(NCCC(=O)N2CCCc3ccccc32)c(C#N)c1C
  -20 | -22
> COc1ccc(NC(=O)Cn2ncn3nc(-c4ccc(F)cc4)cc3c2=O)cc1Cl
  -9 | -19
> c1ccc(N2CCN(c3cccc(-c4cc5ccccc5s4)n3)CC2)nc1
  -3 | -11
> N#Cc1cnc2c(Cl)cc(F)cc2c1Cl
  3 | -2
> Cc1cccc(OCC(=O)NCC(c2ccc3c(c2)CCCN3C)N2CCN(C)CC2)c1 (stereo not given)
  10 | 6
> CC1=NNc2nc3c(c(=O)n(Cc4cccc(C)c4)c(=O)n3C)n2C1
  -9 | -10
> NCCn1nc(-c2ccco2)ccc1=O
  6 | -4
> CC(C)N(CC(C)(C)O)S(=O)(=O)c1ccccc1C(F)(F)F
  -3 | -9
> O=C1CN(C(=O)C2CCC2)CCN1CC1CCCC1
  1 | 9
> Cc1cccc(CN(Cc2ccc(F)cc2)Cc2nc(C(=O)N3CCCCC3)co2)c1
  -2 | 27
> CNc1nn(C)c2c1CCCC2
  2 | 0
> COc1cc(NC(=O)N(CCN2CCOCC2)CC(=O)N(Cc2ccc3c(c2)OCO3)Cc2ccco2)cc(OC)c1
  -5 | -4
> CCC(C)(C)c1ccc(S(=O)(=O)N2CCN(c3nc4nccc(C(C)(C)C)n4n3)CC2)cc1
  3 | -6
> CSc1cccc(CN(C)Cc2ccc(O)c(O)c2)c1
  22 | 10
> CCCc1nnc(C(=O)N2Cc3cnn(CCO)c3C2)o1
  -2 | -2
> CCN(CC)C(C)CN1c2ccccc2Sc2ccccc21 (stereo not given)
  16&-5&1 | 11&-9&-1
> CCCCCCN(C(=O)Nc1ccc(Cl)c(Cl)c1)C(C)c1nc2ccccc2c(=O)n1-c1ccccc1C (stereo not given)
  8 | 12
> CNC(=O)CN(C)C(=O)C1CCCCC1
  0 | -1
> CCN1C(=O)NC(c2ccc(Cl)cc2)C(C(=O)OCCc2ccccc2)=C1C (stereo not given)
  -2 | -7
> Cc1nn(-c2ccc(C(C)C)cc2)c(C)c1CCC(=O)N1CCc2ccccc2C1
  -7 | -11
> CCOC(=O)C1(CCCc2ccccc2)CCN(C2CCSCC2)CC1
  5 | 1
> O=S(=O)(/C=C/c1ccccc1)Nc1cccc(S(=O)(=O)NC2=NCCCCC2)c1
  -1 | -1
> O=C(Nc1ccc(CN2C(=O)Cc3ccc(Cl)cc32)cc1)Nc1ccccn1
  8 | 5
> Cc1[nH]ncc1CCCNC(=O)NC(C)c1ccc(Cl)s1 (stereo not given)
  10 | 5
> NC(=O)c1cncc(N2CCN(Cc3ccc(-n4ccnc4)cc3)CC2)n1
  -6 | -7
> CCOC(=O)CCC(=O)Nc1nnc(SCC(=O)OCC)s1
  -5 | 5
> CC(C)COCC1CC(CC2SC(N)=NC2=O)C(=O)O1 (stereo not given)
  0 | -2
> CN(C)C(=O)Nc1ccc(Cl)c(Cl)c1
  -3 | -11
> O=C(Cn1nc(C2CC2)c2cnn(-c3ccccc3)c2c1=O)N1CCCC1
  10 | 8
> Clc1ccc(OC2CCNC2)cc1Cl (stereo not given)
  5 | -5
> CCOC(=O)CCCC(=O)N1CCN(Cc2cc(=O)c(OCc3cc(C)cc(C)c3)co2)CC1
  0 | -7
> COc1cccc(-c2nnc(SCc3nc(C(=O)NCCc4ccccn4)cs3)n2-c2ccccc2)c1
  2 | 14
> CCCOc1ccc(-c2ccc(-c3noc(-c4ccccc4Br)n3)cc2)cc1
  3 | 5
> CCc1ccc(-c2csc3nc4ccccc4n23)cc1
  -6 | -7
> CCc1ncc(-c2nccn2CC(OC)c2cccs2)cn1 (stereo not given)
  0 | -5
> Cn1nc(C2CCN(C(=O)c3ccsc3)CC2)n(-c2ccccc2)c1=O
  2 | 1
> Cc1csc(SCc2cc(=O)c(OC(=O)COc3ccc(C(C)C)cc3)co2)n1
  -3 | -7
> c1ccc2c(OCc3nc4ccccc4[nH]3)cccc2c1
  0 | -2
> O=C1C2C3C=CC(C3)C2C(=O)N1Cc1ccc(Cl)cc1 (stereo not given)
  -7 | -9
> COCC(C)(C)C(=O)N1CCc2[nH]nc(-c3ccc(F)c(F)c3)c2C1
  14 | 11
> COc1ccc2sc(N(CCCN3CCOCC3)C(=O)Cc3ccc(F)cc3)nc2c1
  -3 | -7
> COCCN(CC(=O)Nc1cc(-c2ccccc2)nn1-c1ccc(F)cc1)C(=O)Nc1ccc(C#N)cc1
  9 | 15
> Cc1ccc(-c2n[nH]c(=S)n2CC(=O)NCc2ccco2)cc1
  1 | 24
> O=C(O)/C=C(\CC(=O)O)C(=O)O
  -10 | -12
> COC(=O)c1ccc2oc(=O)n(C3CCN(C(=O)c4ccc(Cl)nc4)CC3)c2c1
  15 | 20
> Cc1cnn(CCc2n[nH]c(=S)n2-c2cccc(Cl)c2)c1
  30 | 19
> C=CCNC(=O)Cn1c(=O)c2c(OCC)c(C)cnc2n(C)c1=O
  2 | 1
> COC(=O)c1cc(C)nc2c1c(=O)n(Cc1cccc(Cl)c1)n2C
  3 | 1
> Cc1noc(-c2ccc3c(c2)OCO3)c1I
  14 | 11
> Cc1ccc(CN2C(=O)CON=C2c2ccc(N(C)C)cc2)cc1
  4 | 4
> COc1ccccc1N1C(=O)C2C3C=CC(O3)C2C1=O (stereo not given)
  -1 | -5
> COc1ccc(S(=O)(=O)N2CCC(C(=O)OCC(=O)c3ccccc3)CC2)cc1[N+](=O)[O-]
  -4 | -5
> CCOC(=O)c1sc(N)c(C#N)c1COC(=O)C12CC3CC(CC(O)(C3)C1)C2
  -3 | -5
> O=C(NCCC(=O)N1CCOCC1)c1[nH]c2ccc(Cl)cc2c1Cl
  1 | 1
> NC1=NC2(CCCC2)n2c(nc3ccccc32)N1
  5 | 2
> O=C(Cn1c(O)c(N=NC(=O)c2ccncc2)c2ccccc21)Nc1ccccc1
  -5 | -8

Next part
Values run as follows: NPYLR7 agonist | NPYLR7 agonist max-min
> O=C(O)CC1c2cccnc2C(=O)N1c1ccccc1 (stereo not given)
  2 | 6
> COC1=C(OC)C(=O)C(CCCCCCCCCCO)=C(C)C1=O
  -3&-14 | -7&-22
> CN(C)c1nc(N)nc(N(c2ccccc2)c2ccccc2)n1
  1 | 1
> Cc1cc(C)c2[nH]c(C(=O)N3CCOC(C(F)(F)F)C3)c(C)c2c1 (stereo not given)
  2 | 0
> Cc1c(Cl)cccc1NC(N)=Nc1nc(-c2ccncc2)cc(=O)[nH]1
  -8 | -11
> Cc1cc(C)n2c(Nc3c(C)cccc3C)c(-c3ccccc3Cl)nc2n1
  -1 | 1
> O=C(CCCn1nnnc1CN1CCc2ccccc2C1)NCCc1cnccn1
  1 | 1
> CCCCN(C=O)c1c(CC)nc2c(OCc3cc(Cl)cc(Cl)c3)cccn12
  5 | 9
> CC(C)(C)c1nc(-c2ccc(NC(=O)N3CCCSCC3)cc2)no1
  2 | 2
> O=S(=O)(Cc1ccccc1)NCC(c1ccsc1)N1CCOCC1 (stereo not given)
  4 | -8
> CCOc1ccccc1N1CCN(S(=O)(=O)c2cc(C)ccc2OC)CC1
  -1 | 5
> C/C(=C/C(=O)NS(=O)(=O)N(C)C)c1ccc(F)cc1
  5 | 4
> CC(=O)N1N=C(c2cn(-c3ccccc3)nc2-c2ccccc2)CC1c1cccc(NS(C)(=O)=O)c1 (stereo not given)
  -3 | -6
> CN(C)Cc1ccc(-c2ccccc2CNC(=O)c2cnc3sccn3c2=O)cc1
  6 | -1
> O=C(c1ccc(N2CCCCC2)cc1)N1CCCC(Nc2ccc3c(c2)OCO3)C1 (stereo not given)
  4&-6 | 2&-6
> O=C(Nc1ccccc1OCC(F)(F)F)c1ccc(Cl)nc1Cl
  -3 | -4
> CC(C)(Oc1ccc(Cl)cc1)C(=O)Nc1cccc([N+](=O)[O-])c1
  2 | -2
> CCCN(CCO)C(=O)CNC(=O)c1ccc(C)c(C)c1
  -1 | -2
> Nc1c(C(=O)c2ccco2)sc2c1c(=O)[nH]c(=O)n2CCN1CCOCC1
  2 | -1
> Cc1c(-c2ccccc2F)[nH]c2ccc(CNC(=O)CC3CCC(=O)N3)cc12 (stereo not given)
  -10 | -8
> Cc1cc(C)cc(N2C(=O)CSC2c2ccc(NC(=O)c3ccccc3C)cc2)c1 (stereo not given)
  -2 | 9
> CC(C)N(Cc1nccn1Cc1ccc(C(F)(F)F)cc1)C(=O)C1CCC1
  7 | 16
> CC(C)CN(CC(=O)N(Cc1cccn1Cc1ccccc1)C1CCCCC1)S(=O)(=O)c1ccc(Cl)cc1
  1 | 11
> COc1ccc(CC(=O)N2CCOC(COc3ccc(C)cc3)C2)cn1 (stereo not given)
  2 | 2
> CCOC(=O)c1c(NC(=S)NCC2CCCO2)sc2c1CCSC2 (stereo not given)
  2 | -1
> O=C(CSc1nnc2ccc(-c3ccc(F)cc3)nn12)NCC1CCCO1 (stereo not given)
  -14 | -13
> O=C(/C=C/c1cccs1)N(Cc1cccnc1)c1nc2ccc(Cl)cc2s1
  -7 | -1
> O=S(=O)(c1cnc[nH]1)N1CCN(c2ccc(Cl)cc2)CC1
  15 | 7
> COc1ccc(C2(CNC(=O)c3ccc4nccnc4c3)CCOCC2)cc1OC
  -2 | -5
> Cc1cc(C)c(Cn2ccnc2CNCC2CC2)c(C)c1
  1 | 11
> Cc1noc(-c2ccccc2Cl)c1C(=O)NCCCN1CCCCC1C (stereo not given)
  -2 | 6
> Cc1sc2ncnc(SCC(=O)c3cc(C)n(-c4nccs4)c3C)c2c1C
  3 | 11
> Cn1c(=O)c2c(-c3ccccc3F)c(Nc3ccccc3)oc2n(C)c1=O
  -8 | -10
> Cc1cc(N2CCN(c3ccccc3)CC2)n2ncc(-c3ccccc3)c2n1
  0 | -4
> O=[N+]([O-])c1ccc(C=NNc2nncc3ccccc23)o1
  5 | 3
> CC1(C)Cc2c(cnn2-c2ccccc2)C(NC(=O)CN2CCOc3ccccc3C2)C1 (stereo not given)
  1 | -3
> CC1CCCCC1NC(=O)Nc1ccc(S(=O)(=O)C(F)F)cc1 (stereo not given)
  11 | 9
> COCCNC(=O)C1CCC(=O)N1C1CCCC1 (stereo not given)
  1 | -2
> Cc1sc2ncnc(SCC(=O)c3ccc(Cl)s3)c2c1C
  7 | 1
> CCOC(=O)c1ccc2c(c1)[C@H]1C[C@@H](N2)[C@H](OC(C)=O)[C@@H](COC(C)=O)O1
  3 | 4
> Cc1csc(N2CCN(C(=O)Nc3cnn(CC(C)C)c3)CC2)n1
  -7 | -6
> Cc1nc2ccc(Cl)cn2c1C(=O)N1CCCC2(CCNCC2)CC1
  8 | 5
> Cc1ccc(C2(C(F)(F)F)NC(=O)N3CCN=C3S2)cc1 (stereo not given)
  -2 | -5
> CC(C)c1noc(CCCNS(=O)(=O)Cc2cccc(F)c2)n1
  8 | 2
> O=C(c1ccc(-c2ccccc2)cc1)N1CCN(S(=O)(=O)c2ccccc2C(F)(F)F)CC1
  -9 | -14
> CCOC(=O)c1nn(-c2ccccc2C)c(=O)cc1N1CCN(c2ccccc2)CC1
  10 | 7
> O=C(Nc1ccc(-c2noc(-c3cccc(Br)c3)n2)cc1)c1cccc(Cl)c1
  -4 | -10
> CC(=O)N1CCC(NC(=O)c2ccccc2CCc2ccccc2)CC1
  2 | -1
> CN1CCN(Cc2ccc3c(c2)CC(C)(C)O3)CC1C(=O)O (stereo not given)
  7 | 5
> O=C(c1ccccc1)N1CCN(c2ncnc3c2cnn3Cc2ccc(Cl)cc2Cl)CC1
  -14 | -7
> C=c1cc(C)n(CC(=O)Nc2ccc(OC)cc2)c(=O)c1=C1N=C(c2ccc(Cl)cc2)NO1
  -10 | -17
> O=C(COC(=O)c1cccc(-n2cccc2)c1)NC1C2CC3CC(C2)CC1C3 (stereo not given)
  0 | 0
> CSc1ccc(CN2CCCC(CO)(Cc3ccccc3C)C2)cc1 (stereo not given)
  10 | 12
> COc1ccc(C(O)=C2C(=O)C(=O)N(CCCN(C)C)C2c2cc(OC)c(OC)c(OC)c2)cc1 (stereo not given)
  -1 | 4
> O=C(Cn1ncnn1)N1CCOc2c(O)cc(-c3cccc(Cl)c3)cc2C1
  19 | 8
> Cc1ccc(OCC(=O)N[C@@H]2C[C@H]3C(=O)N(C)CC(=O)N3C2)cc1C
  -6 | -7
> COC(C)C(=O)NCC(C)(O)C(c1ccccc1)c1ccccc1 (stereo not given)
  -1 | -2
> COc1nc(-c2ccc3c(c2)OCO3)n(-c2ccc(NC(=O)c3cccc([N+](=O)[O-])c3)cc2)n1
  19 | 26
> Cc1ccc2nc(-c3ccc(NC(=O)C(C)n4ncccc4=O)cc3)sc2c1 (stereo not given)
  -2 | -3
> Cc1onc(-c2ccccc2Cl)c1C(=O)N1CCN(Cc2ccccc2)CC1
  -6 | -12
> Cc1ccc(-n2c(-c3ccc(F)cc3)cc(C(=O)N3CCN(C(=O)CSc4ccccc4)CC3)c2C)cc1
  12 | 10
> CCOc1ccccc1C(=O)Nc1ccc(N2CCN(S(C)(=O)=O)CC2)nc1
  39 | 32

Not all compounds are listed; count on the stated rates, not on these rows.
